WNV NS2B-NS3 inh: WNV NS2B-NS3 proteinase inhibition | z-score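 (tested at a level between 10 and 100 µM)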 | 65,000 compounds, 0.18% hits | AID 577 | WNV NS2B-NS3 protease, fluorogenic substrate Ex360/Em465; stronger effect = lower value | P06935;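 active means z-score at -3 or under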;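 further: score is relative to mean and spread of the compound wells of a plate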
Target sequence (P06935 1371-1501 limits assumed): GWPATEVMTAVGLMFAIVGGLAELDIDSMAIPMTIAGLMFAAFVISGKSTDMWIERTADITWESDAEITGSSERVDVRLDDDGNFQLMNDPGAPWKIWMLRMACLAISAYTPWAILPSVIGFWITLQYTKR
Target sequence (P06935 1502-1679 limits assumed): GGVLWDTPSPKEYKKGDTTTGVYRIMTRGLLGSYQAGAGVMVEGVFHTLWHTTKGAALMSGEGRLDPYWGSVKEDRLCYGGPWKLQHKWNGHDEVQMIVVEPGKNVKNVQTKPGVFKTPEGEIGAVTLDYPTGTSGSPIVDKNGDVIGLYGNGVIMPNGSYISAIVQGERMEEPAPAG
Starred values were filed as active, the others as inactive. A portion of the library; count on the stated rates, not on these rows.

SMILES	WNV NS2B-NS3 inh
COc1ccc(CN(C(C)=O)c2cccc(C)c2C)cc1	-0.32
O=C(CSc1ccc2nnc(-c3ccncc3)n2n1)NCC1CCCO1 (stereo not given)	0.28
Cc1cccc(-n2ncc3c(NCc4ccccc4)ncnc32)c1	-0.7
COc1ccc(S(=O)(=O)N2CCOCC2)cc1C(C)C	1.6
CC12CC(NC(=O)N1c1cccc(C(=O)NCc3ccc4c(c3)OCO4)c1)c1cc(Cl)ccc1O2 (stereo not given)	0.75
COc1cc(S(=O)(=O)N2CCN(c3ccc(F)cc3)CC2)ccc1Cl	-0.17
CCOc1cc(C(=O)NCCN2CCOCC2)cc(OCC)c1OCC	0.98
O=C(NCc1cn2ccsc2n1)c1cccs1	0.36
COc1ccc(S(=O)(=O)N2CCCN(S(=O)(=O)c3ccc(OC)cc3C)CC2)c(C)c1	0.27
Cc1ccc2c(c1)C(CCN)C(=O)N2Cc1ccccc1 (stereo not given)	-0.95
O=C1NC(c2ccccc2Cl)Nc2ccccc21 (stereo not given)	2.1
CCOc1ccc(C2CC(=O)c3c([nH]c(C(=O)OC)c3C)C2)cc1OC (stereo not given)	-0.78
COc1ccc(OC)c(C2CC(=O)Nc3cc(OC)c(OC)c(OC)c32)c1 (stereo not given)	-1.5
CC(NC(=O)Nc1ccccc1)c1ccccc1 (stereo not given)	-0.12
Cc1ccsc1C1C2=C(CC(C)(C)CC2=O)Nc2ncnn21 (stereo not given)	-0.28
CC12CC(NC(=O)N1c1cccc(C(=O)N3CCN(c4ccccc4F)CC3)c1)c1ccccc1O2 (stereo not given)	-0.51
Cc1ccc(/C(O)=C2/C(=O)C(=O)N(CCCn3ccnc3)C2c2cccnc2)cc1 (stereo not given)	1.8
CCc1ccccc1NC1c2ccccc2C(=O)N1Cc1ccco1 (stereo not given)	-1.1
COc1ccc(CCNC(=O)C2CCN(S(=O)(=O)c3cccc4nonc34)CC2)cc1OC	0.48
Cc1ccc(Cn2ccc(NC(=O)C3C4CCC(C4)C3C(=O)O)n2)cc1 (stereo not given)	-0.02
CCNC(=O)C1(c2ccccc2)CCCC1	1.3
CC1Cc2ccccc2N1S(=O)(=O)c1cccc2nsnc12 (stereo not given)	-0.38
O=C(CCCn1c(=O)[nH]c2ccsc2c1=O)N1CCN(c2ccccn2)CC1	-0.13
Cc1ccc2c(CC(=O)NCc3ccco3)coc2c1C	0.26
O=C(NCc1n[nH]c(=S)n1-c1ccccc1)c1ccc(S(=O)(=O)N2CCOCC2)cc1	0.09
CN(CC(=O)NC1CCCCC1)S(=O)(=O)c1ccc(Br)s1	-0.02
O=C(CCc1nc2ccccc2c(=O)[nH]1)OCC(=O)N1CCN(S(=O)(=O)c2ccccc2)CC1	-0.89
COc1cccc(C2CC(=O)Nc3cc(OC)c(OC)c(OC)c32)c1OC (stereo not given)	-0.07
CC(Nc1ncnc2nc[nH]c12)c1ccccc1 (stereo not given)	0.65
O=c1[nH]c2c(s1)C(c1ccccc1)C1C3CCC(C3)C1S2 (stereo not given)	0.11
COc1ccccc1N1CCN(CCCNC(=O)Nc2ccccc2C)CC1	0.1
O=C(CN1CCOCC1)Nc1ncccn1	-0.93
CCOc1ccc2nc(NC(=O)C3CCCN(S(=O)(=O)c4c(C)noc4C)C3)sc2c1 (stereo not given)	-0.47
CN1CCc2c(C#N)c(N3CCCCC3)nc(N3CCOCC3)c2C1	-1.7
Cc1ccnc(NC(=O)Nc2ccc(F)cc2)c1	-0.02
Cc1c(Cl)cccc1Nc1nc(N)nc(CSc2ncccn2)n1	-0.13
Cc1noc(C)c1CSc1nnc(C)c(=O)[nH]1	-0.64
Cc1c(N=C2NC(=O)C(CC(=O)Nc3ccccc3)S2)c(=O)n(-c2ccccc2)n1C (stereo not given)	-0.07
COC(=O)c1sc2nc3c(cc2c1N)COC(C)(C)C3	-0.3
CC(OC1=CC(=O)CCC1)C(=O)c1ccccc1 (stereo not given)	0.24
Cc1nc2ccc(NC(=O)c3ccc(S(=O)(=O)N4CCOCC4)cc3)cc2s1	-0.43
Cn1c(=NC(=O)CSCC(=O)N2CCCC2)sc2ccccc21	-0.62
CCOC(=O)N1CCN(C(=O)CSc2ncnc3ccccc23)CC1	-0.12
Cc1ccc(NC(=O)c2cc(NC(=O)c3ccco3)ccc2N2CCOCC2)cc1	0.29
Nc1c(C(=O)NCc2ccco2)nnn1Cc1ccccc1	0.37
COc1cccc(/C=C/c2ccncc2)c1OC	-0.82
C=CCn1c(SCc2ccc(C(=O)OC)cc2)nnc1-c1sc(N)nc1C	-0.5
Cc1[nH]nc2c1C1(CCC(c3ccccc3)CC1)C(C#N)=C(N)O2 (stereo not given)	-0.63

Some of the entries above in another layout.
| SMILES | WNV NS2B-NS3 inh |
| --- | --- |
| Cc1ccc(NC(=O)c2cc(NC(=O)c3ccco3)ccc2N2CCOCC2)cc1 | 0.29 |
| Nc1c(C(=O)NCc2ccco2)nnn1Cc1ccccc1 | 0.37 |

Continuation.
SMILES	WNV NS2B-NS3 inh
COc1ccc(S(=O)(=O)N2CCCC(C(=O)O)C2)cc1 (stereo not given)	0.79
Cc1nc(SCc2c(F)cccc2Cl)c2c(=O)n(C)c(=O)n(C)c2n1	1.9
CCOC(=O)c1cnc2c(C(F)(F)F)cccc2c1N1CCOCC1	-1.2
CC(=O)Nc1nc(N2C(=O)c3ccccc3C2=O)n(-c2ccccc2)n1	1.5
Cc1ccc(Cl)cc1N1CCN(Cc2nnnn2C2CCCCC2)CC1	-1
O=C(CC1COc2ccccc2O1)NCc1ccccc1 (stereo not given)	-0.64
COC(=O)C1=C(NC(=O)c2ccc(C)c(C)c2)CCS1	-0.55
CCN1CCN(Cc2c(O)ccc3c(=O)c(-c4ccccc4OC)coc23)CC1	-0.14
CC(OC(=O)c1cccs1)C(=O)NCC1CCCO1 (stereo not given)	0.12
O=C(Nc1ccc(Cl)cn1)c1cc2ccccc2o1	-1.1
CCOCC(O)CSCc1ccc(Cl)cc1 (stereo not given)	1.5
Cc1nnc(N)nc1C	-0.39
CC(C)(C)C(=O)NC(=C(Cl)Cl)P(=O)(O)O	-0.99
CCC(C)NC(=O)Cn1c(=O)n(CCCCC(=O)NCc2ccco2)c(=O)c2ccccc21 (stereo not given)	0.28
CC(=O)c1cccc(NC(=O)CCNS(=O)(=O)c2cccc3nsnc23)c1	0.5
Cc1onc(-c2ccccc2Cl)c1C(=O)Nc1ccc(F)c(F)c1	-0.36
CN1C(=O)c2ccccc2C(C(=O)NCc2ccco2)C1c1c[nH]c2ccccc12 (stereo not given)	0.48
O=C(Nc1ncc(Br)s1)C1CCCN1S(=O)(=O)c1cccc2cccnc12 (stereo not given)	-0.28
c1ccc(CCCNc2ncnc3nc[nH]c23)cc1	-0.05
CN1CCN(C(=O)C2CCN(S(=O)(=O)c3ccc4c(c3)oc(=O)n4C)CC2)CC1	-0.16
CCOc1ccc2nc(N3CCC(C(=O)N4CCN(C5CCCCC5)CC4)CC3)sc2c1	-0.05
COc1ccc(-c2csc(NC(=O)c3cc(C)on3)c2C#N)cc1OC	-2
COc1cc(C(=O)N2CCN(C(=O)c3ccco3)CC2)cc(OC)c1OC	0.2
Cn1c(=O)c2c(nc(NCCO)n2C)n(C)c1=O	0.04

Entries above that contain a furan ring, fused or not, in the order listed:
SMILES	WNV NS2B-NS3 inh
CCc1ccccc1NC1c2ccccc2C(=O)N1Cc1ccco1 (stereo not given)	-1.1
Cc1ccc2c(CC(=O)NCc3ccco3)coc2c1C	0.26
Cc1ccc(NC(=O)c2cc(NC(=O)c3ccco3)ccc2N2CCOCC2)cc1	0.29
Nc1c(C(=O)NCc2ccco2)nnn1Cc1ccccc1	0.37
O=C(Nc1ccc(Cl)cn1)c1cc2ccccc2o1	-1.1
CCC(C)NC(=O)Cn1c(=O)n(CCCCC(=O)NCc2ccco2)c(=O)c2ccccc21 (stereo not given)	0.28
CN1C(=O)c2ccccc2C(C(=O)NCc2ccco2)C1c1c[nH]c2ccccc12 (stereo not given)	0.48
COc1cc(C(=O)N2CCN(C(=O)c3ccco3)CC2)cc(OC)c1OC	0.2

Next part
SMILES	WNV NS2B-NS3 inh
C=CCc1cccc2cc(C(=O)OCC)c(=O)oc12	0.15
Cn1cccc1Cc1nnc(SCC(=O)N2CCOCC2)n1-c1ccc(F)cc1	-0.38
CC1(C)Cn2c(nnc2-c2ccccc2)S1	-1.2
Cc1cc2cc(CNC(=O)C3CCCC3)ccc2n1C	-0.33
CCCCCSc1nnc(C)c(=O)[nH]1	-1.1
Cc1noc(C)c1S(=O)(=O)N1CCC(C(=O)N2CCC(C)CC2)CC1	-0.99
CCN(CC)S(=O)(=O)c1cc(C(=O)OC)ccc1Cl	0.57
Nc1ccccc1SCc1cn2ccccc2n1	0.77
COCCOC(=O)c1[nH]c2c(c1C)C(=O)CC(c1ccccc1)C2 (stereo not given)	-0.64
NC(=O)Cn1c(=O)n(CCCC(=O)NC2CCN(Cc3ccccc3)CC2)c(=O)c2ccccc21	-0.3
O=C(Nc1cnccn1)c1cccnc1	1.8
Cc1ccc(C2C3=C(CCCC3=O)Nc3[nH]c(=S)[nH]c(=O)c32)cc1 (stereo not given)	1.9
Brc1ccccc1OCCCN1CCOCC1	-0.56
Cc1noc(C)c1S(=O)(=O)N1CCC(C(=O)NC2CCCc3ccccc32)CC1 (stereo not given)	1.4
CSc1nsc(SC)c1NC(=O)OCC1CCCO1 (stereo not given)	-0.73
Cc1cccc(NC(=O)c2ccc(S(=O)(=O)N3CCCCC3)cc2)n1	-0.53
CC(=O)Nc1ccc(OCC(O)CN2CCN(c3ccc(C)c(Cl)c3)CC2)cc1 (stereo not given)	0.51
COc1ccc(OC)c(N2C(N)=C(C#N)C(c3ccc(OC)c(O)c3)C3=C2CC(C)(C)CC3=O)c1 (stereo not given)	0.13
COc1ccc(-c2nc3n(n2)C(=O)CC(c2ccco2)S3)cc1 (stereo not given)	0.85
Cc1ccc(SCc2[nH]nc3c2C2(CCSCC2)C(C#N)=C(N)O3)cc1	-0.03
Clc1cccc(OCCN2CCOCC2)c1	0.15
N#CCSCC(=O)Nc1ccccc1	0.55
COc1ccc(C(=O)OCCN2C(=O)c3ccccc3C2=O)cc1OC	-0.92
COc1ccc(C(=O)Nc2c(N)nc(SCC(=O)N3CCC(C)CC3)[nH]c2=O)cc1OC	0.92
Cn1cc(CNC(=O)Nc2ccc3c(c2)OCO3)cn1	1.2
Cc1cccc(NC(=O)Nc2ccc(C#N)cc2)n1	0.97
Cc1cccc2cc(CN(Cc3ccc(F)cc3)Cc3nnnn3C3CCCC3)c(=O)[nH]c12	-0.93
CCOCCCNS(=O)(=O)c1ccc2c(c1)CCN2C(=O)CC	0.99
CC(=O)N(C)c1ccc(NC(=O)c2cnn(C)c2)cc1	0.24
O=C(CSc1nnc(SCc2ccc(Cl)cc2)s1)N1CCN(C(=O)c2ccco2)CC1	0.1
C=CCN1C(=O)C(C)(C)N(C(C)=O)c2ccccc21	0.66
Cc1ccc(NC(=O)Cn2c(=O)n(CCCCC(=O)NCc3ccco3)c(=O)c3ccccc32)cc1	-0.24
Cn1c(=O)[nH]c(=O)c2c1nc(Sc1ccccc1)n2CCc1ccccc1	-0.15
Cc1onc(-c2ccccc2Cl)c1C(=O)NCc1ccc2c(c1)cc(C)n2C	-0.32
CCOC(=O)c1[nH]c2ccccc2c1NC(=O)C1CCCC1	0.67
Clc1ccc(Oc2nc(Oc3ccc(Cl)cc3)nc(N3CCOCC3)n2)cc1	-1.2
c1ccc(-n2nnnc2-n2cnc3ccccc32)cc1	0.09
O=C(NCCc1ccccc1)C1CCN(S(=O)(=O)c2cccc3nonc23)CC1	-1.1
CCOc1ccccc1NC(=O)C1CCCN(S(=O)(=O)c2cccc3cccnc23)C1 (stereo not given)	0.31
CCOC(=O)CNS(=O)(=O)CCN1C(=O)c2ccccc2C1=O	0.02
COc1ccc(NC(=O)c2c(-c3ccccc3)noc2C)c(OC)c1	-0.4
O=C(Nc1ccccc1Sc1ccccc1)C1CCCO1 (stereo not given)	2.4
COCCCN=CC1=C(O)CC(C)(C)CC1=O	1.3
Cc1nn(-c2ccccc2)c2sc(-c3n[nH]c(=S)o3)cc12	0.7
CCCn1nnc2sc3c(c2c1=O)CCC(C)C3 (stereo not given)	-0.47
Cn1cnc2cc(OC(=O)c3ccccc3)ccc21	-1.1
Nc1ccc(C2CCCc3nonc32)c2nonc12 (stereo not given)	0.44
Cc1ccc(S(=O)(=O)NCC(=O)N2CCC(C)CC2)cc1	0.41
CC(=O)Nc1ccccc1-c1nc2ccc(C(=O)N3CCN(c4ccccc4)CC3)cc2[nH]c1=O	-0.37
COC(=O)c1nnn(CC(=O)Nc2cccc(Cl)c2)c1C(=O)OC	-0.4
Cc1ccn2cc(CNS(=O)(=O)c3ccc(Cl)s3)nc2c1	-0.42
CN1CCN(CCCNC(=O)c2cn(C3CCCCC3)c(=O)c3c2c2ccccc2n3C)CC1	-1.4
O=C1N2CCSC2=NC1(Nc1nccs1)C(F)(F)F (stereo not given)	-0.55
O=C(NCc1cccs1)C1CCCN(S(=O)(=O)c2ccc(Br)s2)C1 (stereo not given)	1.7
CCN(CC)S(=O)(=O)c1ccc(C(=O)NCc2n[nH]c(=S)n2Cc2ccccc2)cc1	0.73
COc1ccc(S(=O)(=O)N(CCc2ccccc2)CC(=O)N2CCOCC2)cc1	1.4
CCCc1cc(=O)[nH]c(NCc2ccc(Cl)cc2)n1	-0.63
O=C(NCCN1CCOCC1)c1cc2ccccc2o1	-0.91
Fc1cnc(N2CCN(c3ccccc3)CC2)nc1N1CCN(c2ccccc2)CC1	-0.9
CCN(CC)C(=O)CSc1nc(C)cc(-c2cccs2)c1C#N	-1.1

Next section:
SMILES	WNV NS2B-NS3 inh
O=C(Nc1ccccn1)C1CCN(S(=O)(=O)c2cccc3nonc23)CC1	1.4
CN(C)S(=O)(=O)N1CCN(S(=O)(=O)N(C)C)CC1	-0.18
CCCOc1ccccc1C1CC(=O)Nc2cc3c(cc21)OCO3 (stereo not given)	-0.76
COc1cccc(NS(=O)(=O)c2cn(C)c(=O)n(C)c2=O)c1	-0.29
COc1cccc(C2CC(c3ccccc3)n3ncnc3N2)c1 (stereo not given)	-0.42
